Source: PubChem BioAssay
Mtb bLac sens – beta-lactam sensitization of Mtb H37Rv, H37Rv; 0.27% of 330,000 active; inhibition, % at 25 µM; M. tuberculosis H37Rv growth with meropenem, percent inhibition; hits of this screen are not shown here; AID 434955, 2010;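 active = about 74% or more and at least 40 points above the plate without the antibiotic, then above 30% in a dose series; inconclusive = first-round hits that could not be retested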;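 also: growth measured after seven days incubation then overnight dye step; 0% = bacteria only wells and 100% = bacteria with antibiotic; twin plates without the antibiotic show which effects depend on it; some results filed as inactive read as strong as hits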
* marks the source's active call; other numbers are inactive results; ? = inconclusive. Some of the compounds tested; count on the stated rates, not on these rows.

SMILES | Mtb bLac sens
CCC(=O)c1ccc(OCC(=O)N2CCN(CC(=O)Nc3ccc(C)cc3)CC2)cc1 | -1
O=C(O)c1cc2c(cc1NC(=O)c1ccccc1C(F)(F)F)OCCCO2 | 5
COCCOc1ccc(C(F)(F)F)cc1NC(=O)COC(=O)c1ccc(N2CCCC2=O)cc1 | -4
COc1ccc(S(=O)(=O)N2CCOCC2)cc1NC(=O)COC(=O)c1ccc([N+](=O)[O-])s1 | 4
COc1cc(C(=O)COC(=O)c2cccs2)cc(OC)c1OC | -1
COc1ccc(NC(=O)CN(C)CC(=O)NCc2ccc(C)cc2)cc1 | -4
COc1cc(OC)cc(C(=O)NCC(=O)OC2CCCCC2=O)c1 (stereo not drawn) | 6
COc1ccc(OC)c(COC(=O)c2cc([N+](=O)[O-])ccc2N2CCOCC2)c1 | 1
O=c1cc(-c2ccc(O)cc2)oc2ccc3ccccc3c12 | 6
O=C(Cc1ccccc1Cl)Nc1cccc(S(=O)(=O)N2CCCCCC2)c1 | -1
COc1ccc(C(=O)C(C)OC(=O)c2cccc(S(=O)(=O)Nc3c(C)n(C)n(-c4ccccc4)c3=O)c2)cc1 (stereo not drawn) | -5
O=S(=O)(NC1CCN(S(=O)(=O)c2c(F)cccc2F)CC1)c1ccc2c(c1)OCCO2 | 10
CC(NC(=O)CN1C(=O)NC2(CCCCCC2)C1=O)c1ccccc1Cl (stereo not drawn) | -2
CC(OC(=O)/C=C/c1ccccc1)C(=O)Nc1ccc2c(c1)OCCO2 (stereo not drawn) | 2
C[C@H](CO)N1C[C@H](C)[C@@H](CN(C)C(=O)NC2CCCCC2)Oc2c(NC(=O)Nc3ccc4c(c3)OCO4)cccc2C1=O | 8
CC(C(=O)Nc1nc(-c2ccc(F)cc2)cs1)N1C(=O)C2CC=CCC2C1=O (stereo not drawn) | -7
C[C@]12CCC3C(CC[C@H]4C[C@@H](O)CC[C@]34C)C1CC[C@@H]2N (stereo partly drawn) | -9
C=CCC[C@@H](Cc1ccc(F)cc1)C(=O)OC[C@@H]1CCCN1C(=O)[C@@H](CC=C)CC(=O)N[C@@H](CO)Cc1ccccc1 | 11
COc1ccc(NC(=O)N(C)C[C@H]2Oc3ccc(NC(=O)Nc4c(C)noc4C)cc3C(=O)N([C@H](C)CO)C[C@@H]2C)cc1 | 0
CCCCN(C(=O)COC(=O)c1ccc(C=O)cc1)c1c(N)n(CCC)c(=O)[nH]c1=O | -4
COc1ccc(CNC(=O)COC(=O)c2ccc(C)c(S(=O)(=O)N3CCOCC3)c2)cc1 | -4
COc1ccc(C)cc1N(CC(=O)N1CCCCCC1)S(=O)(=O)c1ccc(C)cc1 | -3
CCC(C)c1ccccc1N1CC(C(=O)NCCC2=CCCCC2)CC1=O (stereo not drawn) | -4
CCN1CCN(c2ccc(S(=O)(=O)N3CCOCC3)cc2NC(=O)CCSC)CC1 | -5
CCOC(=O)[C@H]1[C@H]2COc3ccc(Cl)cc3[C@@H]2N2C(=O)c3cc(F)c(F)cc3NC(=O)[C@@]12C | 3
COc1ccc(-c2csc(NC(=O)CSCC(=O)Nc3cc(C)on3)n2)cc1 | 7
COc1ccc(NC(=O)CSc2n[nH]c(-c3ccccc3)n2)cc1S(N)(=O)=O | -1
CN(CC(=O)Nc1cccc(F)c1)C(=O)CCCn1c(=O)oc2ccccc21 | 3
COCCNc1nnc(SCC(=O)NNC(=O)c2ccco2)s1 | -4
Cc1cccc(-c2sc(Nc3ccccc3)n[n+]2-c2ccccc2)c1 | -13
Cc1cccc(C(=O)OCC(=O)NCCN2C(=O)CSC2=O)c1[N+](=O)[O-] | 5
CCc1ccc(-c2nn(Cc3ccccc3)cc2C(=O)NCC2CCCO2)cc1 (stereo not drawn) | 0
Cc1cc(Cl)ccc1OCC(=O)OCC(=O)NC1CCS(=O)(=O)C1 (stereo not drawn) | 6
COC(=O)c1ccc(NC(=O)Cn2c([N+](=O)[O-])cnc2C)cc1 | -1
CCOC(=O)[C@H]1[C@H]2COc3ccc(Cl)cc3[C@@H]2N2C(=O)c3cc(Cl)ccc3NC(=O)[C@@]12C | 91
Cc1ccc(SCC(=O)NNC(=O)CNC(=O)c2ccccc2F)cc1 | 1
O=C1N[C@H](Cc2ccccc2)COC(=O)[C@H](Cc2ccc(F)cc2)CC/C=C/C[C@@H]1CC(=O)N(CCO)Cc1ccccc1 | 19
O=C(NCc1ccccc1Cl)C1CCN(S(=O)(=O)c2cccc3nonc23)CC1 | -10
C[C@H](NC(=O)c1ccco1)C(=O)NCc1cccs1 | 0
Cc1ccccc1CNC(=O)CCNS(=O)(=O)c1ccc(OC(F)(F)F)cc1 | -8
CCOC(=O)C1CCCN(C(=O)c2ccccc2NS(=O)(=O)c2ccc(F)cc2)C1 (stereo not drawn) | -9
O=C(COC(=O)c1cc2ccccc2cc1O)NC1CCCCC1 | 75
CC1CC1C(=O)OCC(=O)Nc1ccc(Cl)cn1 (stereo not drawn) | -2
O=C(CNCc1ccco1)Nc1cc(S(=O)(=O)N2CCOCC2)ccc1N1CCOCC1 | 1
NS(=O)(=O)c1ccc(NC(=O)c2cc(=O)c3ccccc3o2)cc1 | 4
Cc1ccc(OCCC(=O)Nc2ccc3c(c2)OCCCO3)cc1 | -4
CC(C)(C)NS(=O)(=O)c1ccc(NC(=S)NC(=O)C2CCC2)cc1 | ?
O=C(CCc1c[nH]c2ccccc12)NCc1ccncc1 | 1
COC(=O)c1ccc(Cn2cc(/C=C\[N+](=O)[O-])c3ccccc32)o1 | 4
CC(C)(C)OC(=O)C[C@H]1C/C=C\C[C@H](CC(=O)N[C@@H](CO)Cc2ccccc2)C(=O)N[C@H](C(C)(C)C)COC1=O | 5
COc1cccc(CNC(=O)COC(=O)c2cc([N+](=O)[O-])ccc2N2CCCC2)c1 | -10
COc1ccc(/C=C/C(=O)NC(=S)N2CCCCC2)cc1OC | 0
CC1CCCCC1NC(=O)COC(=O)c1cc(=O)[nH]c2ccccc12 (stereo not drawn) | 3
CCOc1ccccc1C(=O)NCC(=O)N1CCN(Cc2ccc3c(c2)OCO3)CC1 | 4
CCCNC(=O)C(Cc1ccc(Br)cc1)NC(=O)c1ccc(C#N)cc1 (stereo not drawn) | -3
O=C(CN1C(=O)NC2(CCCCCCC2)C1=O)Nc1ccc(Br)cc1Br | 90
C[C@@H](OC(=O)c1[nH]cnc1C(=O)N1CCN(C(=O)OC(C)(C)C)CC1)c1ccccc1 | 9
Cc1cccc(NC(=O)CN2CCN(C(=O)c3oc4c(Cl)cccc4c3C)CC2)c1C | 9
CCOC(=O)c1c(C)[nH]c(C(=O)COC(=O)c2cccnc2Cl)c1C | -1
Cc1cccc(-n2ncc3c(=O)[nH]c(SCC(=O)N4CC(=O)Nc5ccccc54)nc32)c1 | 1

Next section
SMILES | Mtb bLac sens
O=C1NC(Cc2ccccc2)c2nc3cc(Cl)ccc3c(=O)n2-c2cc(Cl)ccc21 (stereo not drawn) | 10
CCCCN1C(=O)C(=O)N(CC(=O)c2cc(C)n(C3CC3)c2C)C1=O | -2
COc1ccc(-c2noc(Cn3cc(S(=O)(=O)N4CCCC4)ccc3=O)n2)cc1 | -6
O=C(Nc1nccs1)c1ccc2ccccc2c1 | 98
C[C@H](CO)N1C[C@H](C)[C@@H](CN(C)Cc2ccncc2)Oc2c(NC(=O)C3CCCCC3)cccc2C1=O | 5
Cc1ccc(OCCCC(=O)Nc2ccc(S(=O)(=O)N3CCOCC3)cc2)cc1 | 0
CCN(C[C@H]1N[C@@](CC)(C(=O)OC)[C@H]2C(=O)N(Cc3ccccc3)C(=O)[C@@H]12)C(C)=O | -1
COCCN(C(=O)c1oc2ccccc2c1COC)c1c(N)n(CC(C)C)c(=O)[nH]c1=O | 0
Cc1ccc(-c2csc3ncnc(SCC(=O)NCC4CCCO4)c23)cc1 (stereo not drawn) | 7
COc1ccc(/C=C(\NC(=O)c2ccc([N+](=O)[O-])cc2)C(=O)NCCCN2CCOCC2)cc1 | -8
O=C(NNC(=O)c1cc2ccccc2[nH]1)OCc1ccccc1 | 12
NC(=O)COC(=O)c1ccc2c(c1)S(=O)(=O)c1ccccc1C2=O | 2
Cc1cc(C(=O)NCC(=O)Nc2c(C)cccc2C)c2ccccc2n1 | -6
O=C1C=C(c2ccc(Cl)c(C(F)(F)F)c2)C[C@@H](c2ccc(F)cc2)C1 | 13
CCN(CC)C(=O)c1[nH]cnc1C(=O)Nc1cccc(C)c1 | -2
COc1ccc(NC(=O)COC(=O)c2n[nH]c3ccccc23)c(OC)c1 | 1
C=CC[C@@H](CC(=O)N[C@H](CO)Cc1ccccc1)C(=O)N[C@H](COC(=O)[C@@H](CC=C)CC(=O)OC(C)(C)C)Cc1ccccc1 | -4
COc1ccc(NC(=O)CN(C)C(=O)c2cn(-c3ccccc3)nc2-c2ccc(OC)cc2)cc1 | 25
O=C(NCC(c1ccc(F)cc1)N1CCOCC1)c1nn(-c2ccccc2)c(=O)c2ccccc12 (stereo not drawn) | 1
CSc1ccc(/C=N/NC(=O)c2ccc(-n3cnnn3)cc2)cc1 | -11
COc1ccccc1-c1sc2ccccc2c1-c1ccc(O)cc1 | 1
C[C@@H]1NS(=O)(=O)[C@H]2C[C@@H]3C=C[C@]2(O3)[C@H]1OC(=O)c1ccccc1Br | -7
O=C(NCc1ccncc1)c1cccc(S(=O)(=O)Nc2ccc(SC(F)F)cc2)c1 | -5
O=C1CCN(Cc2ccccc2)S(=O)(=O)c2ccc(C(F)(F)F)cc21 | 5
Cc1ccccc1-c1nnc(SCC(=O)NCC2CCCO2)o1 (stereo not drawn) | 5
CCN(C(=O)COC(=O)c1ccc2c(c1)OCO2)c1ccc(F)cc1 | -2
C/C(=N\NC(=O)c1ccncc1)c1ccc(N2CCOCC2)cc1 | 98
CCOC(=O)c1c(C)[nH]c(NC(=O)NNC(=O)c2ccc(OC)cc2)c1C | -4
CC(NC(=O)c1ccccc1Cl)C(=O)OCc1cn2cc(Cl)ccc2n1 (stereo not drawn) | 5
CC(C)(C)OC(=O)C[C@@H]1C/C=C\C[C@H](CC(=O)N[C@H](CO)Cc2ccccc2)C(=O)N[C@@H](Cc2c[nH]c3ccccc23)COC1=O | -4
COc1ccc(N2CC(C(=O)Nc3ccc([N+](=O)[O-])cc3Br)CC2=O)cc1 (stereo not drawn) | -6
CC(C)(C)c1ccc(NC(=O)C2=CC=CN3CCS(=O)(=O)N=C23)cc1 | 16
CCOc1ccc(C(=O)OCC(=O)N2CC(C)OC(C)C2)cc1OCC (stereo not drawn) | -1
COC(=O)c1ccc(-c2c(-c3ccccc3)ncc3cc(F)ccc23)cc1 | 37
Nn1c(COc2cccc(Br)c2)nnc1SCC(=O)NCC1CCCO1 (stereo not drawn) | 2
O=C(NCC(=O)N1CCCCCCC1)c1ccc(Cl)cc1 | 1
COc1cccc(NC(=O)CN(C)C(=O)c2cc3c(s2)CCCC3)c1 | 3
C=C(C)C(O)COc1c2occc2c(OC)c2ccc(=O)oc12 (stereo not drawn) | -4
Cc1ccccc1S(=O)(=O)Nc1ncnc2sccc12 | 5
CNC[C@H]1Oc2c(NC(=O)C3CC3)cccc2C(=O)N([C@H](C)CO)C[C@@H]1C | -10
CCOc1ccccc1NC(=O)COC(=O)/C=C/c1cccs1 | 2
CC(NC(=O)CCNC(=O)c1ccc(C(C)(C)C)cc1)c1ccccc1 (stereo not drawn) | -1
C=CC[C@@H](CC(=O)N(CCO)Cc1ccccc1)C(=O)N[C@H](COC(=O)[C@@H](CC=C)Cc1ccc(F)cc1)C(C)(C)C | 3
O=C(C[C@@H]1C/C=C/CCCC(=O)O[C@H](c2ccccc2)CNC1=O)NCCO | -1
O=C(C[C@H]1C/C=C\C[C@@H](Cc2ccc(F)cc2)C(=O)OC[C@@H]2CCCN2C1=O)NCCO | -2
COc1ccc(CCNC(=O)COC(=O)c2cccs2)cc1OC | -5
CC[C@]12c3[nH]c4ccccc4c3CCN1C(=O)C(CC(=O)NCCC1=CCCCC1)C[C@@H]2C(=O)N1CCN(C(=O)C2CC2)CC1 (stereo partly drawn) | 0
O=C(NCc1ccccc1)C(c1ccc(F)cc1)N(C(=O)c1csnn1)C1CC1 (stereo not drawn) | 0
O=C(NC1CC1)c1cc(-c2ccc(Br)cc2)nc2ccccc12 | 1
CC1CCC2(CC1)NC(=O)N(NC(=O)CSc1nnc(NC3CC3)s1)C2=O (stereo not drawn) | 10

Structural class, the entries above containing a Cl atom.
SMILES | Mtb bLac sens
O=C(Cc1ccccc1Cl)Nc1cccc(S(=O)(=O)N2CCCCCC2)c1 | -1
CC(NC(=O)CN1C(=O)NC2(CCCCCC2)C1=O)c1ccccc1Cl (stereo not drawn) | -2
CCOC(=O)[C@H]1[C@H]2COc3ccc(Cl)cc3[C@@H]2N2C(=O)c3cc(F)c(F)cc3NC(=O)[C@@]12C | 3
Cc1cc(Cl)ccc1OCC(=O)OCC(=O)NC1CCS(=O)(=O)C1 (stereo not drawn) | 6
CCOC(=O)[C@H]1[C@H]2COc3ccc(Cl)cc3[C@@H]2N2C(=O)c3cc(Cl)ccc3NC(=O)[C@@]12C | 91
O=C(NCc1ccccc1Cl)C1CCN(S(=O)(=O)c2cccc3nonc23)CC1 | -10
CC1CC1C(=O)OCC(=O)Nc1ccc(Cl)cn1 (stereo not drawn) | -2
Cc1cccc(NC(=O)CN2CCN(C(=O)c3oc4c(Cl)cccc4c3C)CC2)c1C | 9
CCOC(=O)c1c(C)[nH]c(C(=O)COC(=O)c2cccnc2Cl)c1C | -1
O=C1NC(Cc2ccccc2)c2nc3cc(Cl)ccc3c(=O)n2-c2cc(Cl)ccc21 (stereo not drawn) | 10
O=C1C=C(c2ccc(Cl)c(C(F)(F)F)c2)C[C@@H](c2ccc(F)cc2)C1 | 13
CC(NC(=O)c1ccccc1Cl)C(=O)OCc1cn2cc(Cl)ccc2n1 (stereo not drawn) | 5
O=C(NCC(=O)N1CCCCCCC1)c1ccc(Cl)cc1 | 1
